Assay outcomes from PubChem BioAssay.
gsp ag: activates gsp, the McCune-Albright syndrome mutation | gsp mutant cells, cAMP HTRF, 30 min; control for the full effect not named in the record | Potency, µM (doses to about 76.9 µM), inactives show top-dose activation (cAMP increase), usual class: activators | 340,000 tested, 0.13% active | AID 624287; active = well fitted activation curve with a large enough effect; inconclusive = small, poorly fitted or top-dose-only effect, or another doubt; inactive = no such curve, though single readings can be large or run the other way; cell line not stated here;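 note: phosphodiesterase inhibitor Ro 20-1724 added with compounds to block cAMP breakdown; potency is the fitted concentration of half-maximal effect; nearly all actives have a fitted effect of over 60% in size; about a fifth of the inactives were tested at one dose only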
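Cells stably selected in G418 were plated at 2000/well, grown 16-24 hr, then given compounds in DMSO with the PDE inhibitor […] (300 uM solution added) for 30 min at 37C; cAMP was read by HTRF.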
PINK1 expr mod: modulators of PINK1 expression; AID 624263; 410,000 tested, 0.2% active; PINK1 immunofluorescence, high-content cytometry, 24 h; Potency, µM (highest dose often 76.6 µM), for inactives: at the top dose activation (PINK1 increase), most hits filed as activators; active = well fitted activation curve with a large enough effect; inconclusive = small, poorly fitted or top-dose-only effect; inactive = flat fitted curve, though single readings scatter; cell line not stated here;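 note: potency is the fitted concentration of half-maximal effect; % of control where 0% means no effect; nearly all actives have a fitted effect of over 65% in size; a mitochondrial uncoupler was the plate control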
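PINK1 protein level read as immunofluorescence by microplate cytometer in a fixed, stained stable cell line after 24 h exposure to five compound concentrations, with CCCP as control.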
gsp antag: antagonists of gsp mutant (McCune-Albright syndrome); 340,000 tested, 0.4% active; AID 624288; Potency, µM (titrated, usually from 76.9 µM), for the others: top-dose activity change, negative = inhibition, usual class: inhibitors; gsp-mutant cells, cAMP HTRF, 30 min; control for the full effect not named in the record; active = falling curve of any shape with a large fitted effect; inconclusive = falling curve, mostly with a smaller effect; inactive = flat or rising curve; cell line not stated here;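 note: intracellular cAMP measured with PDE inhibitor Ro 20-1724 present during compound exposure; potency is the fitted concentration of half-maximal effect; % is set by controls: 0 for no effect and ±100 for the full control effect; nearly all actives have a fitted effect of over 65% in size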
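Measurement of cellular cAMP by homogeneous time-resolved fluorescence following a 30 min compound exposure at 37C. The PDE inhibitor […] was present throughout; the assay buffer was DPBS with 0.05% BSA and 0.005% Tween 20.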
Menin-MLL FL inh: menin-MLL binding inhibition, fluorescein peptide | FP activity change, % at 61.4 µM | Fluorescence polarization, fluorescein-MLL peptide displacement from menin | 290,000 tested, under 10 active; inconclusive = falling polarisation curve, or a change in total fluorescence; inactive = total fluorescence flat and polarisation flat or rising; no compound was filed as active; the % refers to the polarisation; negative = inhibition;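 note: % of control where 0% means no effect; inhibitors lower the polarisation; unlabelled MLL peptide was the positive control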
D2 agonist: activates the human D2 dopamine receptor | P14416 | DiscoveRx PathHunter D2 beta-arrestin, luminescence, 90 min; 100% = 57 uM dopamine signal | activation, % (no concentration beside the values) | 360,000 tested, 0.084% active; in the data active = activation above about 40%; inconclusive = about 15% to 40%; inactive = below about 15%; note: compound concentration not given in the record; the text of the record calls up to 30% inactive
Target sequence (P14416 whole entry, looked up): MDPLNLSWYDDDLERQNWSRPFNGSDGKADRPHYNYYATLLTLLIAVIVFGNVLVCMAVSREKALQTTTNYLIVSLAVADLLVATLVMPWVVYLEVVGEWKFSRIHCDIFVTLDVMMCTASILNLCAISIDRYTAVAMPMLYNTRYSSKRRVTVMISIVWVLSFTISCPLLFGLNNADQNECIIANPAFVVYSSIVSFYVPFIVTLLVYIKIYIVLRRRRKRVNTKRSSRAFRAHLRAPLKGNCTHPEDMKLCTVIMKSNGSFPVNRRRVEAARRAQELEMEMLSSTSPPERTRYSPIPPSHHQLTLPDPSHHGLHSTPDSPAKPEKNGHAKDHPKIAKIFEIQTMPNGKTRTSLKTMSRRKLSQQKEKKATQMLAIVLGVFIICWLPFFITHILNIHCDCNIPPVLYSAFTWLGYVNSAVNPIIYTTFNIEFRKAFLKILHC
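Agonist mode: compounds alone added to overnight-plated D2 PathHunter cells for 90 min at 37 C, with 57 uM final dopamine (EC100) defining full response. Beta-arrestin recruitment detected by chemiluminescent reagent, read after 1 h at ambient temperature.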
ClpP mod: qHTS Assay for Activators of ClpP; 340,000 tested, 1.9% active; Potency, µM (titrated, usually from 57.5 µM), for the others: at the top dose activity change, negative = active; AID 651965, 2013; ATP-dependent Clp protease proteolytic subunit (Bacillus subtilis (strain 168)), P80244; purified B. subtilis ClpP, FRET peptide cleavage, 20 min; active = well fitted falling curve with a large enough effect; inconclusive = small, poorly fitted or top-dose-only effect; inactive = no such curve, though single readings can be large or run the other way; note: potency is the fitted concentration of half-maximal effect; the source files actives as falling curves though it sought activators and does not explain the sign; nearly all actives have a fitted effect of over 65% in size; many hits overshoot -100%
Target sequence (P80244 whole entry, looked up): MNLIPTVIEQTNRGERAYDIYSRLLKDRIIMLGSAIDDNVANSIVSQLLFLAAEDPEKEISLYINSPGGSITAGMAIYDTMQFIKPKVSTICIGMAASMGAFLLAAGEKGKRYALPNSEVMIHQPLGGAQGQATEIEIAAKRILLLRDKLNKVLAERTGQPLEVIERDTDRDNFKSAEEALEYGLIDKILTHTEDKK
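Buffer: 100 mM Tris/HCl pH8, 100 mM KCl, 0.05% low protease BSA, 2.5% glycerol, 0.01% Tween-20. ClpP 10 microg/mL final; 20 min RT; delta FRET normalized to ADEP and DMSO controls.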
Sfp PPTase inh: inhibitors of Bacillus subtilis Sfp phosphopantetheinyl transferase; Q9F4F7; Biochemical Sfp PPTase activity, qHTS; Potency, µM, for the others: max response, negative = inhibition, hits mostly inhibitors; 310,000 tested, 3.5% active; active = well fitted inhibition curve with a large enough effect; inconclusive = small, poorly fitted or top-dose-only effect, or another doubt; inactive = no such curve, though single readings can be large or run the other way;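 note: the enzyme is Sfp with the accession as filed and its product quenches rhodamine fluorescence; potency is the fitted concentration of half-maximal effect; 0% = enzyme reaction without inhibitor and -100% = no enzyme wells; top concentration of the series not given in the record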
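Fluorescence-quenching assay with 15 nM Sfp, 5 uM rhodamine-CoA and 12.5 uM BHQ-2-labelled ybbR peptide in pH 7.6 Hepes/MgCl2 buffer. Enzyme was pre-incubated with compound for 15 min at room temperature. Rate was taken from the 30-min fluorescence change (525/598 nm).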
* hit, by the source's call; ? = inconclusive; · = no result given; [ ] = remark or other dose.

Below each compound: gsp ag	PINK1 expr mod	gsp antag	Menin-MLL FL inh	D2 agonist	ClpP mod	Sfp PPTase inh
- COc1cccc(Cn2c(=O)c3[nH]cnc3n(-c3ccccc3C)c2=O)c1
 : 8.7%	-0.1%	1.0%	-8.4	-4.9	-1.4%	-1.5%
- C=CCN1C(=O)/C(=C\c2cc(Br)c(OCc3ccccn3)c(OC)c2)SC1=S
 : -39.2%[inhibitor]	6.1%	-7.4%	?	-6.0	-0.4%	14.2%
- CC(C)c1cc(C(C)C)c(S(=O)(=O)N2c3ccccc3[C@@]3(Br)C[C@H]4C(=O)N[C@@H](Cc5ccccc5)C(=O)N4[C@@H]23)c(C(C)C)c1
 : 6.0%	2.7%	-11.7%	·	-1.7	-6.3%	·
- S=C(NCCc1ccccn1)Nc1cccc(Cl)c1
 : ?	-1.8%	1.9%	4.7	3.9	-0.6%	7.9%
- CCOC(=O)c1c(C)[nH]c(C(=O)OCc2ccccc2)c1C
 : -21.2%	7.8%	-23.2%	·	-1.2	-4.5%	21.8%
- Cc1ccc(NC(=O)c2ccc3c(c2)CCN3S(C)(=O)=O)c(C)c1
 : -22.8%	14.5%	-0.1%	1.2	2.6	1.0%	0.3%
- O=C(CCCOc1ccc(Cl)cc1Cl)Nc1ccc(O)cc1C(=O)O
 : 13.1%[15.4 µM]	-0.1%	0.8%	1.6	-1.2	·	16.3%
- Cn1c(=O)c2[nH]c(SCC(=O)c3ccc(F)cc3)nc2n(C)c1=O
 : ?	0.2%	-19.9%	-5.5	-2.8	·	-30.0%
- Cc1cnc(C(=O)Nc2ccc(C)c(S(=O)(=O)N3CCCCC3)c2)cn1
 : -35.6%[inhibitor]	9.1%	2.9%	·	-0.6	3.1%	·
- COc1ccc(O)c(CN2CCC(n3nccc3NC(=O)c3ccccc3Cl)CC2)c1
 : -2.7%	4.9%	-0.1%	·	0.9	-0.3%	-4.8%
- COc1ccc2c(OC)c3ccoc3nc2c1OC
 : ·	-1.1%	-0.6%	85.6[activator]	-5.5	4.8%	?
- CN(Cc1ccccc1)C(=O)c1cccc(NC(=O)Cc2ccc(NC(=O)C3CCN(C(=O)C4CCCCC4)CC3)cc2)c1
 : ·	2.4%	4.9%	·	0.9	-1.9%	·
- CC(=O)c1c(OCC(=O)O)ccc2c(C)cc(=O)oc12
 : -5.3%	9.5%[38.3 µM]	-2.4%	0.3	-2.3	?	9.5%
- CN(C(=O)Nc1ccccc1)n1cnc2ccccc2c1=O
 : 1.2%[15.4 µM]	0.5%	13.3%	1.5	-6.5	0.7%	10.0%
- Cc1ccc(/C=C2\SC(=S)N(c3c(C)n(C)n(-c4ccccc4)c3=O)C2=O)cc1
 : -12.2%	-0.5%[38.3 µM]	-16.0%	-1.3	-1.4	0.4%	?
- Cc1ccc(C)c(S(=O)(=O)N2CCN(C(=O)C(C)Sc3ccccc3)CC2)c1 (stereo not drawn)
 : 6.0%	-1.4%	-10.2%	·	-1.4	-1.9%	3.5%
- CCOC(=O)/C=C1/SCC(=O)N1CC(=O)NC12CC3CC(CC(C3)C1)C2
 : -5.8%	0.1%	6.9%	·	-4.6	·	·
- CCN/N=C(\Cc1nc2ccccc2[nH]1)c1ccccc1
 : 6.4%[15.4 µM]	3.8%	-36.7%	6.7	-3.1	·	6.9%
- C=C(C)C1CC=C(C)/C(=N/NC(=O)c2cccs2)C1 (stereo not drawn)
 : -47.5%[inhibitor]	10.3%	-4.0%	-0.4	0.5	2.2%	12.3%
- COC(=O)\C(C(C)=O)=C(/C=C/C=C/C=C/N(C)C)N(C)C
 : -8.9%	9.9%	1.2%	?	0.4	0.7%	-18.0%

New compounds follow
Below each compound: gsp ag	PINK1 expr mod	gsp antag	Menin-MLL FL inh	D2 agonist	ClpP mod	Sfp PPTase inh
- Cc1noc(C)c1COC(=O)c1csc2c1CCCC2
 : -20.6%[15.4 µM]	6.0%	-2.5%	·	4.9	·	·
- CS(=O)(=O)n1nc(-c2ccc(Cl)cc2)nc1SCc1ccccc1
 : -21.7%	2.9%[38.3 µM]	-8.9%	0.3	-1.8	-3.0%	?
- Cc1sc2nc(SCc3nc(-c4ccccc4)no3)n(-c3ccccc3)c(=O)c2c1C
 : -8.0%	0.4%	-7.6%	-0.7	-3.0	1.1%	-5.8%
- O=C(NCCN1CCOCC1)C1CCCN(S(=O)(=O)c2ccc(F)cc2)C1 (stereo not drawn)
 : -1.9%[15.4 µM]	0.3%	9.6%	·	-0.8	1.9%	22.5%
- c1ccc(NC2=Nc3cccc4cccc2c34)cc1
 : -1.5%[15.4 µM]	1.4%	·	?	-1.3	·	2.1%
- CCC(=O)c1ccc(OCc2ccc(C(=O)c3ccccc3)cc2)cc1
 : -1.8%[15.4 µM]	4.0%	-10.4%	2.0	-5.7	·	-4.9%
- CSCCC(N=CC1=C(O)CC(C)(C)CC1=O)C(=O)O (stereo not drawn)
 : 4.0%	1.6%	-13.1%	3.0	-4.9	-9.9%	12.3%
- C=CCn1c(SCC(=O)N(CCOC)c2c(N)n(CCCC)c(=O)[nH]c2=O)nnc1-c1ccc(Cl)cc1
 : -3.8%[15.4 µM]	0.1%	4.1%	·	-4.1	·	·
- NC(=O)CC(NC(=O)c1ccc(Br)cc1)c1ccc(N2CCN(c3ccc(F)cc3)CC2)c([N+](=O)[O-])c1 (stereo not drawn)
 : ?	1.4%	-3.4%	-1.8	-8.5	-0.1%	-0.6%
- COc1cccc2c(Cl)c(CCCl)c(C)nc12
 : ?	-0.4%	-6.3%	-7.7	-2.2	-10.9%	2.5%
- COc1cccc(NC(=S)N(Cc2cccc(Br)c2)CC2CCC(C(=O)O)CC2)c1 (stereo not drawn)
 : ?	-1.4%	-24.5%	0.9	0.7	·	-9.6%
- O=C(CN1CCN(C(=O)c2ccc(OCc3cn4ccccc4n3)cc2)CC1)Nc1cccc(F)c1
 : 0.3%	-1.4%	-16.9%	·	1.7	·	·
- CC(=O)N1c2ccc(S(=O)(=O)NCCC(=O)NCc3ccc(N(C)C)cc3)cc2CC1C (stereo not drawn)
 : 22.6%	-1.6%	-6.7%	-0.2	1.1	-2.9%	6.9%
- O=C(NN1C(=O)C2C3C=CC(O3)C2C1=O)c1ccccc1 (stereo not drawn)
 : 4.0%	0.4%	-11.4%	4.3	-0.1	-4.0%	44.7µM*
- COc1ccc(CN2CCc3ccccc3C2)c(OC)c1OC
 : ?	?	8.0%	2.0	1.6	-0.6%	-22.2%
- COc1ccc(CN2CCC(C(=O)NC(c3ccc4c(c3)OCO4)c3ccccn3)CC2)cc1 (stereo not drawn)
 : ·	0.2%	·	·	-4.8	0.2%	·
- Cc1cc(C)c2ccc(=S)[nH]c2n1
 : 13.9%[15.4 µM]	-0.2%	5.8%	5.4	-2.9	·	?
- COc1ccc(C(CNC(=O)c2oc3c(Cl)cccc3c2C)N2CCCC2)cc1 (stereo not drawn)
 : -4.8%[15.4 µM]	4.0%	16.6%	·	-3.9	-0.5%	·
- O=C(O)CNC(=O)CC1S/C(=N/N=C2\CSC(=O)N2)NC1=O (stereo not drawn)
 : 19.3%	-0.4%	2.4%	2.4	-9.0	-1.9%	3.98µM*
- COc1ccc(N(CC(=O)NCc2ccncc2)S(=O)(=O)c2ccccc2[N+](=O)[O-])c(OC)c1
 : -34.5%[inhibitor]	5.7%	0.2%	-6.0	0.4	·	22.7%

The list goes on:
Below each compound: gsp ag	PINK1 expr mod	gsp antag	Menin-MLL FL inh	D2 agonist	ClpP mod	Sfp PPTase inh
- COc1cc(/C=C(/NC(=O)c2ccccc2)C(=O)Nc2cccc(O)c2)c([N+](=O)[O-])cc1OC
 : 10.3%	-4.6%	12.2%	0.4	?	58.9%	6.9%
- O=C(CSc1nnc(CNC(=O)c2ccc(F)cc2)o1)NCc1ccc2c(c1)OCO2
 : -17.1%[15.4 µM]	-1.0%	20.4%	·	-3.3	5.4%	-26.8%
- O=C(COC(=O)c1cc(Cl)nc(Cl)c1)NC1CCCCCC1
 : 9.3%	-0.8%	11.1%	·	-1.5	-8.6%	·
- COc1ccc(/C=C2/SC(=S)N(CCCC(=O)Nc3ccc(O)cc3)C2=O)cc1
 : -17.1%	0.0%	?	-0.6	7.7	-1.2%	23.0%
- O=C(NCC1CCCO1)C1CCN(C2CCN(C3CCCCCC3)CC2)CC1 (stereo not drawn)
 : 12.2%	-1.2%	8.1%	-20.5	-1.2	·	7.5%
- CC(=O)c1c(N2CCOCC2)nc(=O)n(-c2ccccc2)c1C
 : -38.5%[inhibitor]	·	4.3%	2.6	-1.3	-0.1%	-25.6%

3 compounds from above, sorted by count of non-hydrogen atoms, rising.
Below each compound: gsp ag	PINK1 expr mod	gsp antag	Menin-MLL FL inh	D2 agonist	ClpP mod	Sfp PPTase inh
- O=C(COC(=O)c1cc(Cl)nc(Cl)c1)NC1CCCCCC1
 : 9.3%	-0.8%	11.1%	·	-1.5	-8.6%	·
- COc1ccc(/C=C2/SC(=S)N(CCCC(=O)Nc3ccc(O)cc3)C2=O)cc1
 : -17.1%	0.0%	?	-0.6	7.7	-1.2%	23.0%
- COc1cc(/C=C(/NC(=O)c2ccccc2)C(=O)Nc2cccc(O)c2)c([N+](=O)[O-])cc1OC
 : 10.3%	-4.6%	12.2%	0.4	?	58.9%	6.9%

Profiles, looked up by structure. Order of screens: gsp ag	PINK1 expr mod	gsp antag	Menin-MLL FL inh	D2 agonist	ClpP mod	Sfp PPTase inh
CN(C(=O)Nc1ccccc1)n1cnc2ccccc2c1=O as listed: 1.2%[15.4 µM]	0.5%	13.3%	1.5	-6.5	0.7%	10.0%
COc1ccc(C(CNC(=O)c2oc3c(Cl)cccc3c2C)N2CCCC2)cc1 (stereo not drawn) as listed: -4.8%[15.4 µM]	4.0%	16.6%	·	-3.9	-0.5%	·
Cc1noc(C)c1COC(=O)c1csc2c1CCCC2 as listed: -20.6%[15.4 µM]	6.0%	-2.5%	·	4.9	·	·
Cc1cc(C)c2ccc(=S)[nH]c2n1 as listed: 13.9%[15.4 µM]	-0.2%	5.8%	5.4	-2.9	·	?
COc1ccc2c(OC)c3ccoc3nc2c1OC as listed: ·	-1.1%	-0.6%	85.6[activator]	-5.5	4.8%	?
